# GIV Gai3 FP: inhibitors of GIV peptide binding to Galpha-i3, primary screen, biochemical, fluorescence polarization, FITC-GIV GBA peptide, rat Galphai3 | Guanine nucleotide-binding protein G(i) subunit alpha-3 (Rattus norvegicus), P08753 | 90 min; hits give low values; scaled: aluminum fluoride 0%, vehicle 100% | percent of control (FP), % (concentration not given with the values) | 0.42% of 210,000 active;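 active = replicate mean at 85% of control or lower, very high polarization wells dropped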;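 note: wells of about 15 µL received 100 nL stock; the first replicate is given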
# Target sequence (P08753 whole entry, looked up): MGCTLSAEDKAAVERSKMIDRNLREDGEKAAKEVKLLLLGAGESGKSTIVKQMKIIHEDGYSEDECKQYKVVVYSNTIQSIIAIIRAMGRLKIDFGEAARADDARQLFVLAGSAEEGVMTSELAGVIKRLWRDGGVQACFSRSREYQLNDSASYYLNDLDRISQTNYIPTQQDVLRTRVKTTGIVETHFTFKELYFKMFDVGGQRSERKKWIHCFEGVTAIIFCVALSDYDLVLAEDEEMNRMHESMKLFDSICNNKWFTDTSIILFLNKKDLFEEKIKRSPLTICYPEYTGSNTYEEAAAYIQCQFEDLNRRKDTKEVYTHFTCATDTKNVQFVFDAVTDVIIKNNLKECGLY
# HCMV NEC inh: inhibitors of HCMV UL50-UL53 interaction, biochemical, HTRF; HCMV UL50-UL53 nuclear egress complex (human cytomegalovirus); normalized percent inhibition; inhibition, % (concentration not given with the values); 0.15% of 190,000 active; AID 1918969, 2023;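 active = both replicates at 50% or more, plus weaker picks with an unusually low signal ratio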;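 note: stock transfer was 100 nL into about 20 µL; 0% = negative control wells and 100% = wells with untagged competitor protein; inactives centre near -12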
# Sa growth inh: S. aureus growth inhibition at 42 and 30 °C, primary screen, LtaS inhibitor project, RN4220, two temperatures. 0.53% of 170,000 active. OD600, 20 h, 42 °C; hits give low values. relative growth, % (concentration not given with the values). AID 720641, 2013;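 active = growth at 42 °C up to 50% and 20 or more points under that at 30 °C, or under 10% at both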;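 note: 300 nL library stock went into each well; scaled to the means of positive and negative controls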
# Sa growth inh second temp: further read-out of Sa growth inh, marked with its call; relative growth, %; measured here: growth at 30 °C;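 optical density after 20 h as mean of two plates; 100% = untreated growth and lower means inhibition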
# Starred values were filed as active, the others as inactive; . = not tested or not shown; & = joins results of further samples.
SMILES,GIV Gai3 FP,HCMV NEC inh,Sa growth inh,Sa growth inh second temp
NS(=O)(=O)c1ccc(CCN2C(=O)CSC2=S)cc1,105,-29,48,39
O=C(NCCc1c[nH]c2ccccc12)c1cc(CN2CCCC2)on1,107,-5,98,96
O=c1nc(N2CCOCC2)nc(Nc2cccc(Br)c2)[nH]1,102,-2,.,.
COc1ccc(N(C(C)=O)S(=O)(=O)c2cc(OC)ccc2OC)cc1,110,-2,114,75
COCC(C)NC(=S)NC1CC(C)(C)NC(C)(C)C1 (stereo unspecified),.,-15,96,90
CCCc1[nH]n(-c2nc3ccccc3s2)c(=O)c1C(C)=Nc1ccc(C(=O)OCC)cc1,106,.,113,88
O=C1C2CC=CCC2C(=O)N1CNc1ccccc1 (stereo unspecified),108,.,113,108
COc1cc2cc(C)nc(Cc3cccc4ccccc34)c2cc1OC,98,.,86,84
Cc1c(C(=O)NC(C)C)oc2ccccc12,104,-9,99,95
COc1ccc(C(=O)/C=C2/NCC3c4ccccc4CCN3C2=O)cc1 (stereo unspecified),.,-50,102,80
COC(=O)C1=C(N)Oc2cc(C)[nH]c(=O)c2C1c1ccccc1OC (stereo unspecified),100,-22,96,81
O=C(c1cnc2sccn2c1=O)N1CCOCC1,102,12,.,.
O=C(Nc1cccc(F)c1)c1cccc(-c2cc3ccccc3oc2=O)c1,.,-5,119,72
CN(C)C(=S)SCC(=O)Nc1cccnc1Cl,.,1,101,97
CCOC(=O)N1CCC(NC(=O)Cn2ncc3c(=O)oc4ccc(C)cc4c32)CC1,110,.,101,90
CCc1c(C)sc2c1CCN(C(=O)Nc1cc(Cl)c(OC)cc1OC)C2c1ccccc1 (stereo unspecified),98,.,107,87
COc1cccc(C2C=C(c3ccc(C)c(C)c3)Nc3nnnn32)c1OC (stereo unspecified),104,.,100,87
CCOc1ccc2oc(C)c(C(=O)Nc3cc(C)ccc3OC)c2c1,103,-12,.,.
COc1ccc2c(c1C)CCC1=C(C)C(=O)CCC12C (stereo unspecified),.,9,100,110
CC(=O)ONC(=Nc1ccccc1C)c1nonc1N,100,0,111,83
CCCn1c(CCCNC(=O)c2ccc(OC)c(OC)c2)nc2ccccc21,103,.,102,74
CCCCOc1ccccc1C(=O)Oc1cccc(-n2cnnn2)c1,104,-16,.,.
CCn1ncc(C2=NOC(C(=O)NC3CCCCC3)C2)c1C (stereo unspecified),103,.,95,85
CCOC(=O)c1c(C)[nH]c(C)c1S(=O)(=O)N1CCC(C(=O)Nc2ccccn2)CC1,108,.,91,89
CC(C)CCNC(=O)CNC(=O)C1(C)Cn2c(cc3ccccc32)C(=O)N1C (stereo unspecified),102,-22,.,.
SMILES,GIV Gai3 FP,HCMV NEC inh,Sa growth inh,Sa growth inh second temp
CC1CC(C)CN(CCCNC(=O)Cn2ncn3cccc3c2=O)C1 (stereo unspecified),105,2,95,87
O=S(=O)(NCc1ccc(F)cc1F)c1ccc(-c2ccon2)s1,103,-12,117,89
CCc1cccc(C)c1NC(=O)Cn1ccn(Cc2ccc(Cl)cc2)c(=O)c1=O,100,-21,167,73
O=C1Nc2cc(C(=O)N3CCC(Cc4ccccc4)CC3)ccc2Sc2ccccc21,107,.,92,94
Cc1nn(C(C)C(=O)NC2CCCCC2)c(=O)c2c1sc1ccccc12 (stereo unspecified),108,-6,93,81
CCC(OC(=O)CC1Sc2ccccc2NC1=O)C(=O)NC1CCCC1 (stereo unspecified),108,-5,83,93
CCC(C)NC(=O)C1CCCN(S(=O)(=O)c2cccc3cccnc23)C1 (stereo unspecified),99,.,98,91
Cc1cc(C)c(NC(=O)CSc2ncc3c(n2)-c2cc(Cl)ccc2N(C)S3(=O)=O)c(C)c1,107,.,110,97
Cc1ccc(-c2nc3ccccc3[nH]2)cc1N=Cc1cc(Br)ccc1O,.,4,102,80
Cc1ccc(-n2nc(N3CCCN(C(=O)c4ccc(Cl)cc4)CC3)ccc2=O)cc1C,99,-66,.,.
CC(=O)Oc1ccc2cc(-c3nc(-c4ccccc4)c(C)s3)c(=O)oc2c1,103,.,116,90
CC(C)c1cc(O)c(-c2ccccc2)c(=O)n1-c1ccc(Cl)cc1,106,2,115,96
Cc1ccc2nc(CC#N)[nH]c2c1,132,6,99,80
COc1ccc(-c2noc(-c3cccs3)n2)cc1OC1CCCC1,98,-13,87,87
COc1cc(OC)cc(-c2nc3nc(C)c(CCC(=O)Nc4cc(F)ccc4F)c(C)n3n2)c1,101,15,86,72
CC(=O)N1CCN(Cc2cc(=O)oc3cc(C)ccc23)CC1,105,-23,99,79
O=C1Nc2ccccc2N(O)N1c1ccc(S(=O)(=O)N2CCCCCC2)cc1,104,0,102,98
COc1ccccc1NS(=O)(=O)c1cccc(C(=O)N/N=C/c2c(CO)cnc(C)c2O)c1,.,-39,79,61
CCOc1ccccc1C(=O)N1CCN(C(c2ccccc2)c2ccccc2)CC1,.,0,86,106
O=c1c2ccccc2nc(SCc2ccccc2F)n1CCc1ccccc1,101,.,118,96
CCc1nc2cc(C)nn2c2nc3ccccc3n12,.,-23,115,88
O=C(CCc1nc2ccccc2c(=O)[nH]1)NCc1ccccn1,.,-6,100,97
COc1ccc2nc(Nc3nnc(-c4cccs4)o3)sc2c1,96,-29,99,84
COc1cc(C(F)(F)F)c(C(=O)Nc2cccc(C)c2C)cn1,103,-3,136,108
CCCn1c(=S)[nH]c2ccccc2c1=O,.,3,101,90

# 20 of the compounds above, with values under each structure.
# Values run as follows: GIV Gai3 FP, HCMV NEC inh, Sa growth inh, Sa growth inh second temp
CC1CC(C)CN(CCCNC(=O)Cn2ncn3cccc3c2=O)C1 (stereo unspecified)
→ 105, 2, 95, 87
O=S(=O)(NCc1ccc(F)cc1F)c1ccc(-c2ccon2)s1
→ 103, -12, 117, 89
CCc1cccc(C)c1NC(=O)Cn1ccn(Cc2ccc(Cl)cc2)c(=O)c1=O
→ 100, -21, 167, 73
O=C1Nc2cc(C(=O)N3CCC(Cc4ccccc4)CC3)ccc2Sc2ccccc21
→ 107, ., 92, 94
Cc1nn(C(C)C(=O)NC2CCCCC2)c(=O)c2c1sc1ccccc12 (stereo unspecified)
→ 108, -6, 93, 81
CCC(OC(=O)CC1Sc2ccccc2NC1=O)C(=O)NC1CCCC1 (stereo unspecified)
→ 108, -5, 83, 93
CCC(C)NC(=O)C1CCCN(S(=O)(=O)c2cccc3cccnc23)C1 (stereo unspecified)
→ 99, ., 98, 91
Cc1cc(C)c(NC(=O)CSc2ncc3c(n2)-c2cc(Cl)ccc2N(C)S3(=O)=O)c(C)c1
→ 107, ., 110, 97
Cc1ccc(-c2nc3ccccc3[nH]2)cc1N=Cc1cc(Br)ccc1O
→ ., 4, 102, 80
Cc1ccc(-n2nc(N3CCCN(C(=O)c4ccc(Cl)cc4)CC3)ccc2=O)cc1C
→ 99, -66, ., .
CC(=O)Oc1ccc2cc(-c3nc(-c4ccccc4)c(C)s3)c(=O)oc2c1
→ 103, ., 116, 90
CC(C)c1cc(O)c(-c2ccccc2)c(=O)n1-c1ccc(Cl)cc1
→ 106, 2, 115, 96
Cc1ccc2nc(CC#N)[nH]c2c1
→ 132, 6, 99, 80
COc1ccc(-c2noc(-c3cccs3)n2)cc1OC1CCCC1
→ 98, -13, 87, 87
COc1cc(OC)cc(-c2nc3nc(C)c(CCC(=O)Nc4cc(F)ccc4F)c(C)n3n2)c1
→ 101, 15, 86, 72
CC(=O)N1CCN(Cc2cc(=O)oc3cc(C)ccc23)CC1
→ 105, -23, 99, 79
O=C1Nc2ccccc2N(O)N1c1ccc(S(=O)(=O)N2CCCCCC2)cc1
→ 104, 0, 102, 98
COc1ccccc1NS(=O)(=O)c1cccc(C(=O)N/N=C/c2c(CO)cnc(C)c2O)c1
→ ., -39, 79, 61
CCOc1ccccc1C(=O)N1CCN(C(c2ccccc2)c2ccccc2)CC1
→ ., 0, 86, 106
O=c1c2ccccc2nc(SCc2ccccc2F)n1CCc1ccccc1
→ 101, ., 118, 96

# Later entries:
SMILES,GIV Gai3 FP,HCMV NEC inh,Sa growth inh,Sa growth inh second temp
Cc1nn(CC(=O)N2CCCC2)c(=O)c2ccccc12,100,-4,107,91
O=C(NCCc1c[nH]c2ccccc12)c1cn(-c2ccc(F)cc2)nn1,105,-16,.,.
CCOC(=O)C1CN(c2ccc(C)cc2)CC1=O (stereo unspecified),106,-18,98,70
O=C(CCc1nc2ccccc2c(=O)[nH]1)Nc1ccc2c(c1)CCC2,.,-18,106,98
CC(=O)N/C(=C\C=C\c1ccccc1)C(=O)O,105,-31,102,70
CCN(C(=O)c1cccs1)C1CCS(=O)(=O)C1 (stereo unspecified),97,-16,92,91
COc1ccc(-c2nnc(SCC3CNC(=O)O3)n2C)cc1 (stereo unspecified),.,-4,90,97
COc1ccc(CCNC(=O)c2cc3ccccc3c(=O)o2)cc1OC,98,.,116,78
CCOc1ccccc1NC(=O)CN1C(=O)COc2ccc(S(=O)(=O)N3CCOCC3)cc21,108,.,108,83
CC(=O)Nc1ccc(NC(=O)C2=Cc3cc(C)ccc3OC=C2)cc1,102,-20,.,.
CCOC(=O)CSc1nc2ccccc2n1C,108,-4,.,.
CC(C)n1c(-c2cccc(Br)c2)nc2ccccc21,99,-11,109,77
COC(=O)c1cc2occc2n1CC(=O)Nc1cccc(SC)c1,108,-40,114,99
O=C(COc1ccc2c(c1)OCO2)Nc1ccccc1C(F)(F)F,108,-23,97,100
O=C1NC(=O)c2cc(Cl)c(Cl)cc21,.,-100,102,92
O=c1sn(-c2ccccc2C(F)(F)F)c(=O)n1CC1CC1,106,-37,80,62
CCOC(=O)c1cccnc1SC(CC)C(=O)N1CCOCC1 (stereo unspecified),103,.,112,84
CN(C(=O)CSc1nc(-c2ccccc2)no1)c1ccc(F)cc1,101,.,93,62
CC(C)N(C(=O)CSc1ccc(-c2ccc3c(c2)OCCO3)nn1)C(C)C,99,-14,100,96
COc1ccc(N(CC(=O)NCCc2ccc(Cl)cc2)S(=O)(=O)c2c(C)nn(C)c2C)cc1,102,-23,107,68
COC(=O)CSc1nc2sc3c(c2c(=O)n1-c1ccccc1)CCC3,106,.,107,88
COC(=O)c1nnn(CC(=O)Nc2ccccc2)c1C(=O)OC,99,.,84,97
CCOc1ccc(-n2cc(C(=O)N3CCN(c4ccccc4OC)CC3)c3cc(OC)c(OC)cc3c2=O)cc1,99,0,96,90
CNC(=O)C1CCN(c2nc3ccccc3nc2C(F)(F)F)CC1,105,.,82,89
O=C(Nn1c(-c2ccc(Br)cc2)nc2ccccc2c1=O)c1cccc([N+](=O)[O-])c1,102,-71,.,.

# An excerpt from above, showing only Sa growth inh second temp:
SMILES,Sa growth inh second temp
COc1cc(OC)cc(-c2nc3nc(C)c(CCC(=O)Nc4cc(F)ccc4F)c(C)n3n2)c1,72
CC(=O)N1CCN(Cc2cc(=O)oc3cc(C)ccc23)CC1,79

# The results go on.
SMILES,GIV Gai3 FP,HCMV NEC inh,Sa growth inh,Sa growth inh second temp
CC(=O)N1CCn2c3c(c(=O)c4cc(C)ccc42)CCC31 (stereo unspecified),102,-4,96,97
O=C(OCCN1CCCCC1)c1ccc(O)cc1,109,-19,92,85
CCOc1ccc(C(=O)Nc2cc(-c3nc4ccccc4s3)ccc2OC)cc1,109,11,102,103
CC1=C(C(=O)Nc2ccc(Br)cn2)C(c2ccc(Cl)c([N+](=O)[O-])c2)C2=C(CC(C)(C)CC2=O)N1 (stereo unspecified),103,-14,.,.
COc1ccccc1NC(=O)N1CCOc2ccccc21,103,-17,118,82
O=C1N(C2CCCCC2)C(=NC2CCCCC2)SC12CC2,101,3,90,92
COc1ccc2c(Cl)c(C(=O)NN)sc2c1,.,-16,87,90
CC(C)(C)N1NC2(CCCCC2)NC1=O,97,-31,61,67
Cn1nc(C(=O)O)c2ccccc2c1=O,101,.,110,91
Cc1cc(C(=O)Cn2c(=O)/c(=C\c3ccsc3)s/c2=C\C(=O)C(C)(C)C)c(C)n1C,.,-10,106,98
COc1ccc(N2Cc3ccccc3C2=NC(=O)c2ccncc2)cc1,.,-69,113,74
COc1ccc(CNC(=O)CSc2n[nH]c(-c3ccc(OC)cc3)n2)cc1,101,.,85,87
CCc1ccc(/C(C)=N/N=C(N)N)cc1,98,-10,68,43
Cc1ccc(NC(=O)c2c(Cl)nc3ccccn23)cc1,.,0,80,93
CC1=NN(c2ccccc2)C(=O)/C1=C\c1ccc[nH]1,101,-32,93,88
CC1=C(C(=O)Nc2ccccn2)C(c2ccccc2Cl)n2ncnc2N1 (stereo unspecified),104,-13,.,.
Cc1cc(C)c(C(=O)COC(=O)c2cccc(OCc3c(C)noc3C)c2)cc1C,.,-25,103,97
CCn1c(=O)cc(OCC(=O)N2CCN(c3ccc(F)cc3)CC2)c2ccccc21,105,-5,110,92
CCOC(=O)c1c(S(=O)(=O)N2CCC(C(=O)Nc3ccc(C)cn3)CC2)c(C)n(C)c1C,96&101,.,108,91
CCOC(=O)c1c(NC(=O)c2cc3ccccc3o2)sc2c1CC(C)(C)OC2,.,9,86,100
Fc1ccccc1-n1ncc2c1ncn1nc(COc3ccc(Cl)cc3)nc21,104,-8,115,95
Cc1cc(=O)oc2c3c(ccc12)OCN(c1ccccc1)C3,106,-55,90,67
CC(=O)c1ccc(N2CCN(C(=O)C3CCCN(S(=O)(=O)c4ccc(Br)s4)C3)CC2)cc1 (stereo unspecified),101,-19,96,70

# Compound activity as filed in PubChem.
